Menin-MLL FL inh – qHTS Assay for Inhibitors Targeting the Menin-MLL Interaction in MLL Related Leukemias: Competition With Fluorescein Labeled MLL-derived Peptide; Fluorescence polarization, fluorescein-MLL peptide displacement from menin; FP activity change, % at 61.4 µM; 290,000 tested, under 10 active; inconclusive = falling polarisation curve, or a change in total fluorescence; inactive = total fluorescence flat and polarisation flat or rising; no compound was filed as active; the % refers to the polarisation; negative = inhibition;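 note: % of control where 0% means no effect; inhibitors lower the polarisation; unlabelled MLL peptide was the positive control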
gsp antagonist – qHTS for Antagonists of gsp, the Etiologic Mutation Responsible for Fibrous Dysplasia/McCune-Albright Syndrome: qHTS | gsp-mutant cells, cAMP HTRF, 30 min; control for the full effect not named in the record | Potency, µM (series often up to 76.9 µM), without a hit: at the highest dose activity change, negative = inhibition, most hits filed as inhibitors | 340,000 tested, 0.4% active; active = falling curve of any shape with a large fitted effect; inconclusive = falling curve, mostly with a smaller effect; inactive = flat or rising curve; cell line not stated here;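 note: intracellular cAMP measured with PDE inhibitor Ro 20-1724 present during compound exposure; potency is the fitted concentration of half-maximal effect; % is set by controls: 0 for no effect and ±100 for the full control effect; nearly all actives have a fitted effect of over 65% in size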
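G418-selected cells were plated in DMEM/10% FBS for 16-24 h at 37C, then treated with compounds plus the PDE inhibitor […] (300 uM solution added) for 30 min at 37C. Intracellular cAMP was measured by HTRF after 30 min lysis at room temperature.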
D2 PAM – Beta-Arrestin HTS for Positive Allosteric Modulators of the Human D2 Dopamine Receptor: Potentiators | D(2) dopamine receptor (Homo sapiens), P14416 | DiscoveRx D2 beta-arrestin cells, luminescence, 90 min; 100% = 57 uM dopamine signal | potentiation, % (test concentration not listed) | 360,000 tested, 0.23% active | AID 624464, 2012; active = potentiation of 50% or more; inconclusive = 30% to 50%; inactive = 30% or less;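 note: compound concentration not given in the record; tested on top of an EC20 dose of dopamine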
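D2 cells co-treated with compound plus 50 nM dopamine (EC20) for 90 min at 37 deg C to detect potentiation. Beta-arrestin recruitment was read as enzyme-fragment luminescence after 1 h at ambient temperature. Full response was set by 57 uM dopamine.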
ClpP mod – qHTS Assay for Activators of ClpP; 340,000 tested, 1.9% active; purified B. subtilis ClpP, FRET peptide cleavage, 20 min; ATP-dependent Clp protease proteolytic subunit (Bacillus subtilis (strain 168)), P80244; AID 651965, 2013; Potency, µM (series often up to 57.5 µM), inactives show at the highest dose activity change, negative = active; active = well fitted falling curve with a large enough effect; inconclusive = small, poorly fitted or top-dose-only effect; inactive = no such curve, though single readings can be large or run the other way; note: potency is the fitted concentration of half-maximal effect; the source files actives as falling curves though it sought activators and does not explain the sign; nearly all actives have a fitted effect of over 65% in size; many hits overshoot -100%
Target sequence (P80244 whole entry, looked up): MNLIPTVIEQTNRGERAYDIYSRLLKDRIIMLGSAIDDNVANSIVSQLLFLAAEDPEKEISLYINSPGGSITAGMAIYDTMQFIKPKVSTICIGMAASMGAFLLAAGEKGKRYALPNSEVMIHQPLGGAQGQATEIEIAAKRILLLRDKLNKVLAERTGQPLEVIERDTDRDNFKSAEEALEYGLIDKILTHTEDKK
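Purified B. subtilis ClpP, 10 microg/mL final in Tris/HCl pH8 with KCl, BSA, glycerol and Tween-20, cleaved an Abz/nitrotyrosine-quenched decapeptide. Fluorescence (ex 320, em 430) was read at 0 and 20 min at room temperature. Delta was normalized to 5.8 microM ADEP and DMSO/no-enzyme controls.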
TRPV1 potentiator – HTS Assay for Compounds that Act as Potentiators of the Vanilloid Receptor 1; 320,000 tested, 0.02% active; TRPV1-expressing cells, Fluo-8 calcium influx, capsaicin EC20 potentiation; host cell line not named in the record; control for the full effect not named in the record; AID 540277, 2011; potentiation, % at 8.33 µM; Transient receptor potential cation channel subfamily V member 1 (Homo sapiens), Q8NER1; active means potentiation above 80%; inconclusive means 30% to 80%; inactive means below 30%; note: 0% is about no effect
Target sequence (Q8NER1 whole entry, looked up): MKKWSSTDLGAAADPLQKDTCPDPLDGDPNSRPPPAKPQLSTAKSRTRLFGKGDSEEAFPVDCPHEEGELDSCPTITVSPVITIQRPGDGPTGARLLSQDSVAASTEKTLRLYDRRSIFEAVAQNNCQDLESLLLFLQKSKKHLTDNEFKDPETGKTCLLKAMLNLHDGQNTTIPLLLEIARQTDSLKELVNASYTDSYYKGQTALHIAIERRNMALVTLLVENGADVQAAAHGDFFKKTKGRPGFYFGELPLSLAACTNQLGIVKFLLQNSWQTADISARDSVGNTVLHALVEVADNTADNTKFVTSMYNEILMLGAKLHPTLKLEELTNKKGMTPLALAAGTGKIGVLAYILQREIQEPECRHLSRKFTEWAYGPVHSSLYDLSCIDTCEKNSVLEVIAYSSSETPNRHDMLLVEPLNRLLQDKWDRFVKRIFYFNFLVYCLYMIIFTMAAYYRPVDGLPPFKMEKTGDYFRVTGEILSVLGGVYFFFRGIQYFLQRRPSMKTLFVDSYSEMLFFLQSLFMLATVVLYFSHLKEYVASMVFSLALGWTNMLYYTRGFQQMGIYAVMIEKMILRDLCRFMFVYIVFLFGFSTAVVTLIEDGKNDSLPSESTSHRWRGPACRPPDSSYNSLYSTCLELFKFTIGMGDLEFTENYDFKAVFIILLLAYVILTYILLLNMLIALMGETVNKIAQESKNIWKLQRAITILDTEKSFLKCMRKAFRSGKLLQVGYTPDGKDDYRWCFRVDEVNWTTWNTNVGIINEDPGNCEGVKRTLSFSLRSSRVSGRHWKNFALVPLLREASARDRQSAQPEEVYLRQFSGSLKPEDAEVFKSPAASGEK
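TRPV1-expressing cells were cultured overnight at 35.5C and loaded with Fluo-8 calcium dye for 40 to 90 min at room temperature. After a 10 s baseline, compound was added and calcium influx was read kinetically for 3 min (ex 480/em 520 nm).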
gsp agonist – qHTS for Agonist of gsp, the Etiologic Mutation Responsible for Fibrous Dysplasia/McCune-Albright Syndrome: qHTS; gsp mutant cells, cAMP HTRF, 30 min; control for the full effect not named in the record; Potency, µM (highest dose often 76.9 µM), inactives show at the highest dose activation (cAMP increase), hits mostly activators; 340,000 tested, 0.13% active; active = well fitted activation curve with a large enough effect; inconclusive = small, poorly fitted or top-dose-only effect, or another doubt; inactive = no such curve, though single readings can be large or run the other way; cell line not stated here;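 note: phosphodiesterase inhibitor Ro 20-1724 added with compounds to block cAMP breakdown; potency is the fitted concentration of half-maximal effect; nearly all actives have a fitted effect of over 60% in size; about a fifth of the inactives were tested at one dose only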
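Cells stably selected in G418 were plated at 2000/well, grown 16-24 hr, then given compounds in DMSO with the PDE inhibitor […] (300 uM solution added) for 30 min at 37C; cAMP was read by HTRF.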
Sfp inh – qHTS Assay for Inhibitors of Bacillus subtilis Sfp phosphopantetheinyl transferase (PPTase). 4'-phosphopantetheinyl transferase ffp (Bacillus subtilis), Q9F4F7. Biochemical Sfp PPTase activity, qHTS. Potency, µM, inactives show max response, negative = inhibition, hits mostly inhibitors. 310,000 tested, 3.5% active. AID 1490, 2009; active = well fitted inhibition curve with a large enough effect; inconclusive = small, poorly fitted or top-dose-only effect, or another doubt; inactive = no such curve, though single readings can be large or run the other way;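 note: the enzyme is Sfp with the accession as filed and its product quenches rhodamine fluorescence; potency is the fitted concentration of half-maximal effect; 0% = enzyme reaction without inhibitor and -100% = no enzyme wells; top concentration of the series not given in the record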
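Buffer: 50 mM Hepes-Na pH 7.6, 10 mM MgCl2, 0.01% Nonidet P-40, 0.01% BSA. Enzyme 15 nM, pre-exposed to compound 15 min; substrates then added and fluorescence change tracked over 30 min.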
An asterisk follows results filed as active; u = inconclusive; x = not tested or not shown; & = joins results of further samples; [ ] = dose if it differs, or a comment.

SMILES	Menin-MLL FL inh	gsp antagonist	D2 PAM	ClpP mod	TRPV1 potentiator	gsp agonist	Sfp inh
COc1ccc(N2CCN(C(=O)c3oc4ccccc4c3NC(=O)Cc3cccc(OC)c3)CC2)cc1	-4.2	-12%	-15	-2.4%	2	-31%[inhibitor]	9%
Nc1nnnn1/N=C/c1cc(Cl)ccc1O	u	5%	-3	0.6%	5	u	13%
COc1ccc2c(Cl)c(C(=O)NN3CCN(C)CC3)sc2c1	-0.4	13%	-7	-1.1%	15	9%[15.4 µM]	14%
CCOC(=O)c1ccc(N(C(=O)c2ccco2)C(C(=O)NC2CCCC2)c2ccncc2)cc1 (stereo unspecified)	1.8	-15%	6	-2.9%	-1	10%[15.4 µM]	-4%
Cc1cccn2c(=O)nc(SCC(=O)Nc3cccc4ccccc34)nc12	x	-6%	0	-4.2%	25	13%[15.4 µM]	x
O=C(COc1ccc([N+](=O)[O-])cc1)N(Cc1cccs1)C1CCS(=O)(=O)C1 (stereo unspecified)	0.0	6%	-2	0.3%	-1	u	1%
COc1ccc(S(=O)(=O)N2CCCC(C(=O)N3CCN(C)CC3)C2)cc1Cl (stereo unspecified)	x	3%	6	-3.2%	20	-17%	9%
O=C(Cc1ccccc1)N/N=C/c1cc(Br)cc(Cl)c1O	10	-13%	-14	x	-6	12%[15.4 µM]	-2%
Cc1ccc(-n2nc(CC#N)c(C#N)c2N)cc1	6.7	4%	-1	-2.2%	2	-24%	7%
Cn1cccc1C(=O)NCC(c1ccc(F)cc1)N1CCOCC1 (stereo unspecified)	x	5%	-9	-1.4%	-7	u	11%
CCOC(=O)c1cc(C#N)c(SCC(=O)c2cc(C#N)c(SC)nc2C)nc1C	1.8	-21%	-4	29%	16	-16%	16µM*
Cc1ccsc1/C=C1\SC(N2CCOCC2)=NC1=O	-0.4	-17%	-11	0.4%	-7	1%	9%
O=C(NCCCCc1ccccc1)C12CN(Cc3ccccc3)CC1C(c1cccc([N+](=O)[O-])c1)=NO2 (stereo unspecified)	6.1	-1%	-58	-1.4%	-2	x	8%
COc1cc(OC)cc(C(=O)NC(=S)Nc2cccnc2)c1	-5.7	-5%	-36	-2.2%	0	-6%	3%
CC1=C(C(=O)OC(C)C)C(c2c[nH]c3ccccc23)n2ncnc2N1 (stereo unspecified)	2.9	3%	-4	-2.8%	u	-2%	21%
COC(=O)C1=CN(Cc2ccccc2)C=C(C(=O)OC)C1c1cc(F)ccc1F	8.4	-4%	-11	0.8%	4	-3%[15.4 µM]	-2%
O=S(=O)(Nc1cc(Sc2cccc3cccnc23)c(O)c2ccccc12)c1ccc(F)cc1	x	-2%	-15	9.1%	7	6%	10µM*
O=C(COC(=O)c1ccc(S(=O)(=O)N2CCCC2)cc1)NCc1ccccc1	-3.1	-9%	-26	0.6%	-34	0%	-6%
C=CCN(CC=C)CCOc1ccccc1	4.5	1%	-23	1.9%	1	1%	-26%
C[C@H](NC(=O)Cc1cccc2ccccc12)C(=O)N1CCCN(C)CC1	-3.7	-2%	-1	x	-4	6%[15.4 µM]	22%
CCOC(=O)C1CCCN(S(=O)(=O)CCNC(=O)c2cccc(OC)c2)C1 (stereo unspecified)	x	5%	-18	x	-24	12%[15.4 µM]	x
CC(C)SCCCOc1ccc(C(C)(C)C)cc1	1.6	-12%	6	0.5%	u	-47%[inhibitor]	12%
COc1ccccc1CCC(=O)N1CCN(S(=O)(=O)c2cccc(F)c2)CC1	x	-2%	9	-0.6%	-1	-4%	x
COc1ccc(-c2cn(Cc3ccc(C)cc3)nn2)cc1	-0.7	3%	-5	0.8%&1.1%	10	x	17%
Clc1cccc(Cl)c1/C=C/c1nc2ccccc2[nH]1	0.2	28µM*	3	35%	-2	-1%	3%
CCCCCCn1c(SCC(=O)c2c(N)n(C)c(=O)n(C)c2=O)nc2ccccc21	-0.6	11%	-12	-1.1%	5	u	1%
CCS(=O)(=O)CCSc1nc(C)cc(C)c1C#N	-1.1	-27%	-4	-0.6%	1	-24%	8%
CCNC(=O)Oc1ccc(-c2csnn2)cc1	-2.2	8%	-2	x	1	2%[15.4 µM]	12%
Cc1cc(CSc2ccccc2C(=O)O)on1	2.2	6%	-1	x	-6	6%	10%
NC(=O)COC(=O)[C@H](Cc1ccccc1)NS(=O)(=O)c1ccc2c(c1)OCCO2	x	10%	-3	x	-2	-10%[15.4 µM]	x
O=C(Nc1cccc2ncccc12)c1ccccc1[N+](=O)[O-]	3.2	10%	1	x	9	22%	21%
CC(C)C(NC(=O)c1c(F)cccc1F)C(=O)NCC(c1ccccc1)N(C)C (stereo unspecified)	0.0	3%	-3	0.0%	0	1%	13%
O=C1CCCC(O)=C1C1C2=C(CCCC2=O)Oc2ccccc21 (stereo unspecified)	1.1	-8%	-3	-0.7%	-16	6%	11%
O=C(NNC(=O)c1nn(-c2ccc(F)cc2)ccc1=O)c1ccc(Cl)cc1	5.9	-2%	-1	0.9%	x	-12%[15.4 µM]	-16%
O=C(O)c1cccc(NS(=O)(=O)c2ccc(S(=O)(=O)N3CCOCC3)cc2)c1	-2.0	8%	-4	-2.1%	-6	-19%	4%
CC1(C(=O)Oc2ccccc2)Cc2ccccc2C(=O)O1 (stereo unspecified)	9.3	-3%	-6	1.0%	-13	-15%	-13%
CCOC(=O)[C@H](CCc1ccccc1)N[C@@H](C)C(=O)N1CCC[C@H]1C(=O)O	1.4	-3%&29%	-5&-17	-4.2%&-1.0%	7&12	x	-8%&10%&23%
O=C(C1CCN(S(=O)(=O)c2cccc3nsnc23)CC1)N1CCN(c2ccccc2F)CC1	-0.8	-16%	2	-0.1%	x	-1%	1%
c1ccc(NCc2nnc3n2CCCCC3)cc1	0.0	2%	-6	-1.8%	10	-33%[inhibitor]	6%
Cc1ccc2c(CC(=O)Nc3ccc(F)c(S(=O)(=O)N4CCOCC4)c3)coc2c1	x	-7%	-9	-1.8%	-9	4%	x
O=C(Nc1nnc(-c2ccc3c(c2)OCCO3)o1)c1ccc(Cc2ccccc2)cc1	2.2	1%	-6	4.3%	15	-14%	7%
Cc1onc(-c2c(Cl)cccc2Cl)c1C(=O)Nc1ccc2c(c1)OCO2	1.5	19%	-4	0.3%	24	-48%[inhibitor]	4%
O=C(O)c1ccccc1-c1c2cc(I)c(=O)c(I)c-2oc2c(I)c(O)c(I)cc12	u	u	-23	-3.3%&0.1%	x	x	u
Cc1cc(=O)n(CC(=O)Nc2cc(Cl)ccc2C)c(C(C)C)n1	-6.7	5%	-7	0.9%	3	-7%	2%
CC(=O)N1CCN(C2=NC(=O)C(=C3CCCCC3)S2)CC1	2.4	0%	-15	1.6%	13	-26%	18%
CC(=O)Nc1c(O)n(C)c2ccccc12	u	0%	-2	-2.0%	0	28%	4%
O=C(CSc1nc2ccccc2nc1N1CCOCC1)N1CCN(c2ccccc2)CC1	-1.8	-5%	-10	-0.5%	-2	-42%[inhibitor]	-2%
CCCCN(C1CCS(=O)(=O)C1)S(=O)(=O)c1cc(C)ccc1C (stereo unspecified)	x	5%	-7	-1.4%	1	30%	x
CC(C)c1nnc(NC(=O)C2CCN(c3nc4ccccc4s3)CC2)s1	-1.2	-2%	5	0.1%	u	-24%	-5%
CNC(=O)/C=C1\NC(C)(C)Cc2ccccc21	-4.5	1%	-9	-0.3%	2	u	50µM*
CC(C)(CNC(=O)c1cc2c(s1)CCCC2)N1CCOCC1	x	12%	-24	-5.2%	-8	33%	x
Cc1ccccc1CN1CCNC(=O)C1CC(=O)N(C)CCC1CCOCC1 (stereo unspecified)	x	7%	-7	-18%	5	1%	13%
CCCCN(c1ccccc1)S(=O)(=O)N(C)C	2.9	13%	2	x	-17	5%[15.4 µM]	16%
CCc1ccccc1NC(=O)CCS(=O)(=O)c1ccc(OC)cc1	9.9	16%	-14	1.0%	-1	28%	-16%
O=C(CSc1nnc(-c2ccccn2)n1Cc1ccco1)Nc1ccc2c(c1)OCO2	7.1	-6%	-19	2.4%	6	6%	10%
CN(CC(=O)Nc1ccc(F)cc1)C(=O)c1cccc(NS(=O)(=O)c2ccccc2)c1	x	-3%	-2	0.1%	-3	-28%	x
C=C[C@H]1[C@H](OC2OC(CO)C(O)C(O)C2O)OC=C(C(=O)OC)[C@H]1C[C@H]1CC(=O)C[C@H](CC(=O)CCc2ccc(O)cc2)O1 (stereo partly specified)	x	9%	-11	-2.2%	x	x	x
Cc1cc(C2=NNC(=NCc3ccccc3)SC2)c(C)n1-c1c(C)n(C)n(-c2ccccc2)c1=O	7.9	-7%	-9	x	2	-3%[15.4 µM]	-3%
COc1ccc(N2CCN(C(=O)CSc3ncnc4scc(-c5ccc(C)cc5)c34)CC2)cc1	x	-3%	-19	-0.7%	x	u	x
O=C(COc1cc(O)c2c(=O)cc(-c3ccccc3)oc2c1)c1ccccc1	4.1	-7%	-4	2.5%	3	u	-16%
COc1ccc(CN2C(=O)NC3(CCOc4ccccc43)C2=O)cc1F (stereo unspecified)	0.3	15%	-25	-0.2%	-14	-3%	6%

Quoted at random: 2 compounds from above
SMILES	Menin-MLL FL inh	gsp antagonist	D2 PAM	ClpP mod	TRPV1 potentiator	gsp agonist	Sfp inh
CCc1ccccc1NC(=O)CCS(=O)(=O)c1ccc(OC)cc1	9.9	16%	-14	1.0%	-1	28%	-16%
CCCCN(C1CCS(=O)(=O)C1)S(=O)(=O)c1cc(C)ccc1C (stereo unspecified)	x	5%	-7	-1.4%	1	30%	x

Compounds were not picked by outcome (roughly 5.1% active in at least one column).
